RE007 growth inh: qHTS Assay for Inhibitors of the HIV-1 protein Vpr; 360,000 compounds, 0.21% hits; S. pombe RE007 Vpr strain, BacTiter-Glo ATP luminescence, 24 h; control for the full effect not named in the record; Potency, µM (titrated, usually from 92.2 µM), without a hit: top-dose activity change, negative = less growth; active = well fitted falling curve with a large enough effect; inconclusive = small, poorly fitted or top-dose-only effect; inactive = no such curve, though single readings can be large or run the other way;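 also: % is scaled to controls: 0 for no effect and ±100 for the full control effect; nearly all actives have a fitted effect of over 50% in size; the assay follows cell death caused by Vpr and the record does not say whether a fall means rescue or toxicity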
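Fission yeast strain RE007, carrying one chromosomally integrated HIV-1 vpr copy, was seeded at OD 0.01 in PMG+AL medium with 23 nL pinned compound. After 24 h at 30 °C and 99% humidity, viability was read by BacTiter-Glo luminescence.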
NS1 function inh: qHTS Assay for Inhibitors of Influenza NS1 Protein Function. 270,000 compounds, 0.4% hits. Potency, µM (top dose mostly 46.1 µM), without a hit: top-dose activity, positive = more growth. S. cerevisiae slowed by influenza A NS1, growth recovery by OD600; active means well fitted rising curve with a large enough effect; inconclusive means small, poorly fitted or top-dose-only effect; inactive means no such curve, though single readings can be large or run the other way; also: nearly all actives have a fitted effect of over 50% in size
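Recovery from NS1-induced slow growth read by OD600 in budding yeast switched to galactose assay medium (pH 6.0, -URA) at 1:100 dilution. Compound 23 nl per well; the matching strain lacking NS1 serves as control.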
Cruzain Triton: qHTS Assay for Promiscuous and Specific Inhibitors of Cruzain (with detergent). Cruzipain (Trypanosoma cruzi), P25779. purified cruzain, Z-FR-AMC fluorescence, 0.01% Triton. Potency, µM, for the others: max response, negative = inhibition, hits mostly inhibitors. 200,000 compounds, 0.43% hits. AID 1478, 2009;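 also: plate controls were neutral wells for no effect and buffer without enzyme for full effect; nearly all actives have a fitted effect of over 40% in size; top concentration of the series not given in the record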
Target sequence (P25779 123-467 limits assumed): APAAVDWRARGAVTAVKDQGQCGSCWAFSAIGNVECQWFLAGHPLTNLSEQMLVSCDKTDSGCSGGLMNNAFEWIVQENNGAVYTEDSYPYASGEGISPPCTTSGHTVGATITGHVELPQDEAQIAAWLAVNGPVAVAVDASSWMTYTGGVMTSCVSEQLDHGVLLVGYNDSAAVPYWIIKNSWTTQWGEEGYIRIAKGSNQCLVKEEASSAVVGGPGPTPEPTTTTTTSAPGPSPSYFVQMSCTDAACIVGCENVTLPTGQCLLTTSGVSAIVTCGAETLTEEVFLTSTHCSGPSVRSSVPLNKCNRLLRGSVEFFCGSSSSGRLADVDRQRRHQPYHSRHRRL
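Compounds were screened in titration against cruzain (1.5 nM) with 0.01% Triton X-100 to counter colloidal aggregation. Activity was the AMC fluorescence increase over 60 s after adding 2 uM Z-FR-AMC at pH 5.5.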
SARS PLpro yeast: qHTS of Yeast-based Assay for SARS-CoV PLP. S. cerevisiae expressing SARS-CoV PLpro, growth rescue; control for the full effect not named in the record. Potency, µM (titrated, usually from 32.9 µM), for inactives: at the top dose activity, positive = growth rescue. 330,000 compounds, 0.19% hits. AID 485353, 2010; active means well fitted rising curve with a large enough effect; inconclusive means small, poorly fitted or top-dose-only effect; inactive means no such curve, though single readings can be large or run the other way; also: 0% is about no effect; nearly all actives have a fitted effect of over 55% in size; growth read by luminescence after 48 h
Lassa entry inh: qHTS for Inhibitors of binding or entry into cells for Lassa Virus; Lassa virus pseudotype entry inhibition, cell reporter; control for the full effect not named in the record; Potency, µM (titrated, usually from 37.9 µM), for the others: at the highest dose activity change, negative = inhibition, actives largely listed as inhibitors; 300,000 compounds, 1.2% hits; active means well fitted inhibition curve with a large enough effect; inconclusive means small, poorly fitted or top-dose-only effect, or effect the other way; inactive means flat fitted curve, though single readings scatter; tested in HEK293 cells; also: % is scaled to controls: 0 for no effect and ±100 for the full control effect; nearly all actives have a fitted effect of over 50% in size; luciferase read-out
MARV entry inh: qHTS for inhibitors of binding or entry into cells for Marburg Virus | Marburg virus pseudotyped entry inhibition, cell reporter; control for the full effect not named in the record; about a third of the inactives were read at about 46 µM | Potency, µM (highest dose often 37.8 µM), without a hit: top-dose activity change, negative = inhibition, usual class: inhibitors | 300,000 compounds, 1.8% hits | AID 540276, 2011; active = well fitted inhibition curve with a large enough effect; inconclusive = small, poorly fitted or top-dose-only effect, or effect the other way; inactive = flat fitted curve, though single readings scatter; tested in HEK293 cells; about a fifth of its hits are not listed in these tables; also: % is scaled to controls: 0 for no effect and ±100 for the full control effect; luciferase read-out
StopGo reporter: High Throughput Screening for Foot and Mouth Disease Virus Antivirals; human cells with a luciferase reporter of 2A StopGo recoding; control for the full effect not named in the record; Potency, µM (titrated, usually from 57.9 µM), for inactives: at the top dose signal change, negative = less light; 410,000 compounds, 1.2% hits; AID 1159524, 2015; active = well fitted falling curve with a large enough effect; inconclusive = small, poorly fitted or top-dose-only effect; inactive = no such curve, though single readings can be large or run the other way; tested in HEK293T cells; also: % is scaled to controls: 0 for no effect and ±100 for the full control effect; nearly all actives have a fitted effect of over 45% in size; luciferase light after 4 h
Cruzain inh noDet: qHTS Assay for Promiscuous and Specific Inhibitors of Cruzain (without detergent). Cruzipain (Trypanosoma cruzi), P25779. AID 1476, 2009. 200,000 compounds, 2.3% hits. purified cruzain, Z-FR-AMC fluorescence, no detergent. Potency, µM, for inactives: max response, negative = inhibition, actives largely listed as inhibitors;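 also: plate controls were enzyme without inhibitor for no effect and buffer without enzyme for full effect; nearly all actives have a fitted effect of over 40% in size; top concentration of the series not given in the record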
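Purified cruzain at 1.5 nM, pre-incubated 15 min with compound at room temperature in 100 mM sodium acetate pH 5.5, 5 mM DTT, 0.00005% Triton X-100. Reaction started with 2 uM Z-FR-AMC; AMC fluorescence increase over 60 s gives rate.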
An asterisk follows results filed as active; ? = inconclusive; . = not tested or not shown; & = joins results of further samples; [ ] = another dose, or the depositor's remark. Unless noted, calls follow the shape of the dose curve; as a rule, active = well fitted curve in the direction sought with a large enough effect; inconclusive = small, poorly fitted or top-dose-only effect, or another doubt; inactive = no such curve, though single readings can be large; an effect the other way counts as inactive or inconclusive. Potency is read from the fitted curve at half-maximal effect.

SMILES	RE007 growth inh	NS1 function inh	Cruzain Triton	SARS PLpro yeast	Lassa entry inh	MARV entry inh	StopGo reporter	Cruzain inh noDet
CN(CC(=O)Nc1cccc2ccccc12)c1ccc(S(=O)(=O)N2CCOCC2)cn1	5%	2%	3.6%	6%	-9%	?	?	10%
O=C(O)CCc1ccc(-c2cccs2)n1-c1ccc(C(=O)O)cc1	4%	16%	-0.6%	3%	.	5%	-11%	-9%
Cc1cc(C)c(S(=O)(=O)NCC23C=CC(O2)C2C(=O)N(c4ccccc4)C(=O)C23)c(C)c1 (stereo not drawn)	22µM*	-103%	-0.3%	-30%	?	?	40%[activator]	5%
COc1cc2c(cc1OC)C(c1ccc(C)cc1)NC(=O)C2 (stereo not drawn)	1%	0%	.	-5%	.	.	-14%	.
CCOC(=O)CC(=O)CSc1nc(-c2cccnc2)cc(C)c1C#N	26%	?	1.6%	-2%	-3%	2%	-6%	-4%
O=C(NCCOc1ccccc1F)c1cccc(S(=O)(=O)N2CCN(c3ccccc3)CC2)c1	-2%	.	.	0%	?	?	-4%	.
O=C1c2ccccc2CN1C(CO)Cc1ccccc1 (stereo not drawn)	13%	0%	.	1%	.	.	-7%	.
O=C(CN(Cc1ccco1)C(=O)CCC(=O)Nc1ccccn1)NCc1ccccc1	8%	-2%	.	1%	.	-17%[46.1 µM]	-4%	.
COc1cccc(-c2csc(N3CCN(C(=S)Nc4ccccc4OC)CC3)n2)c1	3%	5%	0.2%	-2%	9%	-25%	.	?
OC(COc1ccc(CN2CCCCO2)cc1)CN1CCCCC1 (stereo not drawn)	3%	2%	.	-1%	-22%	-28%[46.1 µM]	-3%	.
COc1ccccc1C(=O)C1CCCN(Cc2cccc(OCCO)c2)C1 (stereo not drawn)	-3%	18%	.	5%	.	.	6%	.
COc1ccccc1-n1c(O)c(C=NCCN2CCNCC2)c(=O)[nH]c1=O	-5%	21%	4.3%	4%	5%	28%	7%	-8%
COc1ccc(C2CC(c3ccccc3C)n3nc(N)nc3N2)cc1 (stereo not drawn)	-2%	6%	-7.1%	4%	.	.	-13%	1%
O=C(NNC(=O)c1ccccc1[N+](=O)[O-])c1ccccc1[N+](=O)[O-]	21%	1%	.	4%	-6%	23%[46.1 µM]	-5%	.
O=C(c1ccc(S(=O)(=O)Cc2ccccc2Cl)c([N+](=O)[O-])c1)N1CCOCC1	1%	-4%	.	-2%	?	?	?	.
O=C(c1cccs1)N1CCC2(O)CCCCC2C1c1ccc(F)cc1 (stereo not drawn)	18%	2%	11%	-6%	17%	-8%	30%[activator]	-6%
CCN(CC)c1ccc(NC(=O)c2cnc3ccccn3c2=O)c(C)c1	-9%	0%	-8.0%	1%	-14%[14.3 µM]	-26%	-4%	-2%
OC(COc1ccc(Cl)c2ccccc12)CN1CCN(c2ccccn2)CC1 (stereo not drawn)	30%	-78%	-13%	-8%	-29%	?	-19%	19%
Cc1cc(C)n(CCN(C)c2nc3nonc3nc2NC2CC2)n1	-10%	4%	.	1%	.	.	10%	.
O=C(CCS(=O)(=O)c1ccccc1)N(Cc1cccnc1)c1nc2ccc(F)cc2s1	.	.	0.7%	.	13%[46.1 µM]	.	3%	22%
COc1ccccc1CN1CC(C(=O)NCc2cccc(C)n2)CCC1=O (stereo not drawn)	-5%	-2%	.	2%	.	.	-6%	.
COc1ccc(OC)c(CCNC(=O)CCC(=O)N2CCOc3ccc(C)cc32)c1	-11%	7%	.	4%	.	.	-29%	.
C/C(=N\NC(=O)C1=NNC(=O)C1C)c1cccs1 (stereo not drawn)	-2%	.	.	-6%	3%	-1%[46.1 µM]	70%[activator]	.
COc1cccc(NC(=O)CN2C(=O)C(c3ccc(C)cc3)=NC23CCCCCC3)c1	15%	4%	-7.0%	-16%	-5%	2%	?	4%
COc1ccc(C(=O)NCCc2ccc(C(F)(F)F)cc2)cc1S(=O)(=O)N1CCOCC1	10%	.	.	2%	-13%	-7%	0%	.
COc1cc(OC)nc(NC(=S)NC(=O)c2ccccc2)n1	-8%	15%	-2.5%	21%	20%	18%	8%	-3%
Cc1ccc(NC(=O)Cn2nnc(C(=O)NCc3ccc4c(c3)OCO4)c2N)cc1Cl	.	.	-1.5%	.	0%[46.1 µM]	.	2%	-24%
Cn1c(=O)c(=O)n(C)c2cc(NC(=O)c3ccccc3Br)ccc21	.	.	-6.6%	.	0%[46.1 µM]	1%[46.1 µM]	-21%	1%
Cc1ccc(C(=O)N/N=C\c2ccc(-c3ccc(Cl)cc3)o2)cn1	5%	-2%	.	-2%	.	.	-25%	.
Clc1ccc(CSc2nc3ccncc3[nH]2)cc1	?	-76%	3.9%	-26%	.	.	-59%	-1%
Cc1ccc(S(=O)(=O)Nc2ccc(C(=O)NC3CC3)cc2)cc1	-6%	1%	.	-1%	?	4%[46.1 µM]	5%	.
NC(=O)c1ccccc1NC(=S)NC(=O)c1ccc(Br)o1	2%	-16%	-3.9%	4%	2%	4%	14%	7%
O=C(CN1C(=O)C2(SCC(=O)N2c2ccccc2)c2ccccc21)Nc1ccccc1C(F)(F)F (stereo not drawn)	.	.	-1.1%	.	12%[46.1 µM]	.	-15%	-14%
O=C1CSC(=S)N1N=Cc1ccc(Cl)s1	3%	.	.	.	7%[46.1 µM]	27%	-8%	.
O=S(=O)(NC1=NCCC1)c1cccc(NC(=S)Nc2ccc(OC(F)F)cc2)c1	4%	.	.	-8%	-17%	2%	27%	.
COCCN(CCOC)S(=O)(=O)c1ccc(C(=O)Nc2nc(-c3ccncc3)cs2)cc1	-8%	-18%	-17%	-2%	?	-19%	.	?
CCOC(=O)c1c(NC(=O)c2ccoc2C)sc(C)c1C	-12%	-11%	-16%	-1%	-2%	-7%[46.1 µM]	-9%	5%
CCOc1cccc(OCCOCCN2CCCC2)c1	-5%	-5%	4.8%	10%	-24%	14%	-12%	-4%
CCCC(C)NC(=O)CN1C(=O)c2cccc3cccc1c23 (stereo not drawn)	-17%	16%	.	1%	-6%	7%	-15%	.
CC(C)c1ccccc1NC(=O)CNCCOc1ccccc1F	-4%	-3%	.	0%	.	.	-22%	.
N#Cc1nc(-c2ccc(OCc3ccccc3)cc2)oc1NCCCn1ccnc1	0%	-176%	?	-9%	0%	?	-13%	19%
Cn1c(=O)c2[nH]c(CCCCCCCCc3nc4ccccc4[nH]3)nc2n(C)c1=O	-11%	.	.	.	11µM*	?	13µM*	.
Cc1c(NC(=O)OCCSc2nc(N(C)C)nc(N(C)C)n2)sc(=S)n1C	?	-9%	1.2%	.	-13%	-15%	.	20%
CCN(Cc1ccccc1)C1CCN(Cc2ccccc2)CC1	-6%	-3%	.	1%	.	.	-9%	.
COC(=O)C1CCN(C(=O)CSc2nnc(-c3ccncc3)o2)CC1	-7%	8%	0.3%	5%	6%	-6%&-6%	-13%	-13%

Reprinted at random: two records from the list
SMILES	RE007 growth inh	NS1 function inh	Cruzain Triton	SARS PLpro yeast	Lassa entry inh	MARV entry inh	StopGo reporter	Cruzain inh noDet
CCOc1cccc(OCCOCCN2CCCC2)c1	-5%	-5%	4.8%	10%	-24%	14%	-12%	-4%
O=C(CN1C(=O)C2(SCC(=O)N2c2ccccc2)c2ccccc21)Nc1ccccc1C(F)(F)F (stereo not drawn)	.	.	-1.1%	.	12%[46.1 µM]	.	-15%	-14%

Continued.
SMILES	RE007 growth inh	NS1 function inh	Cruzain Triton	SARS PLpro yeast	Lassa entry inh	MARV entry inh	StopGo reporter	Cruzain inh noDet
CCS(=O)(=O)n1nc(-c2ccccc2)cc1N	-8%	?	-1.6%	6%	.	.	-16%	-8%
Cc1cccc(-n2cc(CNCCN3CCOC3=O)c(-c3cccc(F)c3)n2)c1	1%	2%	.	0%	-30%[46.1 µM]	?	4%	.
Cc1cc(=O)n2c3ccccc3n(CC(O)CN3CCC(C)CC3)c2c1C#N (stereo not drawn)	.	5%	-4.5%	?	10%	15%	-23%	-3%
O=C(OCc1nnn(Cc2ccccc2)c1-c1c(COC(=O)c2ccccc2)nnn1Cc1ccccc1)c1ccccc1	-2%	4%	.	1%	.	.	8%	.
COc1cccc(-c2nc(N3CCN(c4ccccc4)CC3)c3ccccc3n2)c1O	-8%	20%	1.4%	6%	5%	19%	-11%	10µM*
Cc1ccc2c(c1)c(=O)c1ccccc1n2CCCC(=O)Nc1cc(Cl)ccc1C	.	.	5.6%	.	1%[46.1 µM]	.	-24%	15%
Cc1ccc(C)c(CN2C(=O)C3(OCCCO3)c3ccccc32)c1	-13%	3%	-6.2%	-9%	16%	-10%	0%	-3%
CC(Oc1ccc(Cl)cc1)C(=O)N/N=C/c1ccsc1 (stereo not drawn)	-3%	?	-7.2%	-4%	-3%	11%	-6%	-9%
O=C(O)c1ccc(-c2ccc(/C=C3\NC(=O)N(Cc4ccc(Cl)cc4)C3=O)o2)cc1Cl	-26%	7%	.	0%	?	16%[46.1 µM]	6%	.
CCCCOc1ccc(C2NC(=O)NC(C)=C2C(C)=O)cc1OCC (stereo not drawn)	5%	9%	.	-1%	.	.	-23%	.
C=CCNC(=O)c1cnn(-c2ccccc2)c1-c1ccccc1	-12%	1%	.	13%	-11%[46.1 µM]	-5%[46.1 µM]	-6%	.
NCCCC[C@H]1CNC(=S)N1CCCCC1CCCCC1	1%	2%	.	1%	.	.	0%	.

Quoted from the listing:
SARS PLpro yeast, `C=CCNC(=O)c1cnn(-c2ccccc2)c1-c1ccccc1` stands at 13%
Cruzain inh noDet, `Cn1c(=O)c(=O)n(C)c2cc(NC(=O)c3ccccc3Br)ccc21` stands at 1%
SARS PLpro yeast, `COc1ccccc1CN1CC(C(=O)NCc2cccc(C)n2)CCC1=O` (stereo not drawn) stands at 2%
StopGo reporter, `O=C1CSC(=S)N1N=Cc1ccc(Cl)s1` stands at -8%
